AID504770 = growth inhibition of E. coli YBA685, primary screen, V. cholerae RctB inhibitors | z-score (test concentration not listed) | E. coli YBA685 rctB-dependent plasmid, OD600 growth, 3 h; stronger effect = lower value | actives 0.27% (n = 130,000);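 active = z-score under -2 on both plates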;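 note: wells of about 30 µL received 100 nL stock; score is relative to mean and SD of the test wells; the first replicate is given; strong numbers were not always called active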
CapD inh = Bacillus anthracis CapD inhibitors, primary screen, biochemical, fluorescence intensity | CapD gamma-glutamyltranspeptidase (Bacillus anthracis Ames Ancestor) | purified CapD enzyme, fluorescence intensity read-out; stronger effect = lower value; some hits fall short of the stated cut | z-score (concentration not given with the values) | actives 0.23% (n = 140,000);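 active = z-score under -4 in either of two replicates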;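 note: stock transfer was 100 nL into about 40 µL; score is relative to mean and spread of the plate; one replicate is shown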
Numbers without * were called inactive; i = inactive; . = not tested or not shown; & = joins results of further samples.

canonical_smiles | CapD inh | AID504770
CCOc1cc(C2C3=C(CC(C)(C)CC3=O)OC3=C2C(=O)CC(C)(C)C3)c(Br)cc1O | -0.68 | .
COc1ccc(S(=O)(=O)N(C)CC(N)=O)cc1 | 0.83 | 0.4
COc1cccc(Cc2nnc(-c3ccc4c(c3)OCO4)o2)c1 | 0.75 | -0.8
O=C(NCC1CC1)c1ccc(Cn2cc(C(F)(F)F)ccc2=O)cc1 | -0.49 | .
O=C(OCC(=O)N1CCCC1)c1c(Cl)cccc1Cl | 0.18 | 1
OC(CSCc1ccc(Cl)cc1)(c1ccc(F)cc1)c1ccc(F)cc1 | 0.065 | .
C=CCNC(=O)c1c(O)c2cccc3c2n(c1=O)CCC3 | . | 1.1
CCCN1CCN(C(=O)C(NC(=O)c2ccco2)C(C)C)CC1 (stereo not given) | . | 0.15

canonical_smiles | CapD inh | AID504770
C=Cc1c(S(C)(=O)=O)sc(C(=O)NC)c1C | -0.15 | -0.35
COc1ccc(-n2nc3c(c2NC(=O)c2cccc(F)c2)CS(=O)C3)cc1 (stereo not given) | 0.66 | 0.6
COc1ccc(-n2cc(C(=O)Nc3cc(C)ccc3OC)nn2)cc1 | -0.36 | 0.5
COc1ccc(C(=O)c2sc3nc(C)cc(-c4cccs4)c3c2N)cc1 | -1.5 | .
COc1ccc(CNC(=O)c2cc(S(=O)(=O)N3CCCC3)c[nH]2)cc1 | -0.87 | -0.85
COc1ccc2oc(=O)c(C(=O)N(C)C)cc2c1 | 63 | 0.5
CC12CC[C@@H]3c4ccc(O)cc4CCC3[C@@H]1CCC2=O (stereo not given in full) | -2.5 | .
CCN(CC)c1ccc(/C=C2\N=C(c3ccccc3)OC2=O)cc1 | 0.45 | .

canonical_smiles | CapD inh | AID504770
CCOc1ccc(C2C(C(=O)OCCOC)=C(C)NC3=C2C(=O)CC(c2ccc(OC)c(OC)c2)C3)cc1 (stereo not given) | 16 | .
COc1cccc(C2CCN(C(=O)c3cccc4ccccc34)CC2)c1 | -0.2 | -0.85
O=c1/c(=C\c2ccc(N3CCCC3)c(F)c2)sc2nc3ccccc3n12 | -0.42 | 0.65
CSc1nnc(-c2cc(C)on2)n1C | 0.64 | -0.3
C/C(N)=C(/C#N)C(=O)CSc1nc2cc(S(=O)(=O)N3CCCCC3)ccc2o1 | . | -0.5
Fc1cccc(CSc2nc(NCC3CCCO3)c3ccccc3n2)c1 (stereo not given) | -0.41 | .
CC1=C(C(=O)OCC2CCCO2)C(c2coc3ccc(Cl)cc3c2=O)C2=C(CCCC2=O)N1 (stereo not given) | -0.4 | .
COc1ccc(/C=C2\N=C(c3ccc(OC)c([N+](=O)[O-])c3)OC2=O)cc1OC(C)=O | -1.2 | .

canonical_smiles | CapD inh | AID504770
Cc1ccc(NC(=S)N2CCCCC2)cc1C | 0.56 | .
Cc1ccc2c(c1)NCC(C(=O)N1CCN(C)CC1)O2 (stereo not given) | -0.26 | -0.45
O=C(CSc1ccccn1)Nc1ccccn1 | -0.1 | -1.6
CC1(C)C(C(=O)Nc2ccccc2C#N)C1(C)C | 0.26 | -0.2
Cc1[nH]nc2c1CCCC2 | . | -0.65
COc1ccc(CC(=O)N2c3ccccc3CCc3ccccc32)cc1 | 0.23 | -0.3
O=C(CCc1nc2cccnc2n1-c1ccccc1)NCC1CCCO1 (stereo not given) | -0.27 | -0.75
COc1ccc(N2C(=O)/C(=C/c3cn(Cc4ccccc4)c4ccccc34)NC2=S)cc1 | -0.07 | .

canonical_smiles | CapD inh | AID504770
CCC(C)c1ccc(OCC(=O)Nc2cccc(-c3nc4ncccc4o3)c2C)cc1 (stereo not given) | -0.2 | 0.7
CC(C)CN(CC(C)C)c1nnc(NC(=O)Nc2ccccc2)s1 | -0.26 | 0.3
Cn1cnnc1SCNC(=O)c1cc2ccccc2o1 | . | -0.4
CN(CCOc1ccc(F)cc1)Cc1ccccc1 | . | -0.35
C[C@@H](C(=O)Nc1nc2ccccc2[nH]1)N1C(=O)C2CC=CCC2C1=O (stereo not given in full) | . | -0.45
CCC1=CC(=O)C=C(CC)C1=O | -0.22 | 0.25
COCCNC(=O)c1ccc2c(=O)n(Cc3ccc4c(c3)OCO4)c(SCC(=O)NCCC3=CCCCC3)nc2c1 | 0.41 | .
CCOC(=O)/C(C#N)=C1/C=C(C)c2ccccc2N1 | 0.05 | -1.1

canonical_smiles | CapD inh | AID504770
COC(=O)CSc1n[nH]c(CNc2cccc(C)c2)n1 | . | -0.1
Cn1cc(C=C(C#N)C#N)c2ccccc21 | . | -0.1
Cc1csc(NC(=O)C(Cc2ccccc2)NS(=O)(=O)c2ccc(Br)s2)n1 (stereo not given) | -0.35 | 0.1
CN(Cc1ccccc1)S(=O)(=O)c1ccc2c(c1)C(=O)NCC(=O)N2 | 0.16 | -0.25
CS(=O)(=NC(=O)NC(=O)c1ccc(Cl)cc1)c1ccc(C(F)(F)F)cn1 (stereo not given) | 0.25 | 1.4
CCOC(=O)CSc1nnc(-c2ccccc2SC)n1-c1ccccc1 | -0.6 | .
CC1=NN(c2ccc(Cl)c(C(=O)O)c2)C(=O)/C1=C\c1ccc(-c2ccccc2C(=O)O)o1 | -2.3 | .
CCCc1c(C(=O)OCC)[nH]c2c1C(=O)CCC2 | 0.065 | 0.5

canonical_smiles | CapD inh | AID504770
Cc1cc(C(=O)COC(=O)CCN2C(=O)C3CC=CCC3C2=O)c(C)n1C (stereo not given) | . | -0.35
O=C(O)CCC(=O)c1ccco1 | . | 2.2
Cc1cc(C)nc(SCC(=O)N2CCCC2c2cccs2)n1 (stereo not given) | . | -0.05
c1cc2nncn2nc1N1CCOCC1 | 34 | -0.4
COc1ccc(/C=C2/C(C)=C(C#N)c3nc(N)c(C#N)c(C)c32)c(OC)c1 | -0.39 | .
O=C(CSc1nnnn1C1CCCC1)c1ccc2c(c1)OCCO2 | . | -0.6
O=C(OCc1csc(Nc2ccccc2)n1)c1cccc(S(=O)(=O)N2CCOCC2)c1 | . | 0.3
CC(CCc1ccccc1)NC(=O)Cc1noc2ccccc12 (stereo not given) | 0.51 | 1.2

canonical_smiles | CapD inh | AID504770
Cc1noc(C)c1-c1nnc(-c2ccc(OC(F)(F)F)cc2)o1 | -0.045 | -0.4
O=C(COc1ccccc1Br)Nc1ccc(C(=O)OC2CCCCC2)cc1 | 0.4 | -0.25
CCSc1nc2sc3c(c2c(=O)n1-c1ccc(OC)cc1)CC(C)(C)OC3 | -0.98 | .
CCN(CC)C(=O)Cn1cc(SCC(=O)N(C(C)C)C(C)C)c2ccccc21 | -3.6 | -0.85
Cc1ccc(S(=O)(=O)/N=C(\N)Nc2nc3ccccc3s2)cc1 | . | -0.4
Fc1cccc2c(OC3CCN(Cc4ccccc4)CC3)cc(C(F)(F)F)nc12 | 0.21 | .
COc1ccc(N2C(=O)CSC2c2ccc(C3SCC(=O)N3c3ccc(OC)cc3OC)cc2)c(OC)c1 (stereo not given) | 0.29 | .
c1ccc(-c2nc(-c3cccnc3)n[nH]2)cc1 | . | -0.3

canonical_smiles | CapD inh | AID504770
CCN=C(Nc1cc(-c2ccccc2OC)[nH]n1)SC | -0.27 | -0.3
C=CCSc1nnc(-c2nn(-c3ccc(Cl)cc3)ccc2=O)n1CC | -0.55 | .
CCOc1ccccc1N1C(=O)C2C3c4ccccc4C(C(OC)OC)(c4ccccc43)C2C1=O (stereo not given) | 6.3 | .
O=C(NCCc1ccccc1)C1CCN(c2ncnc3c2sc2cccc(F)c23)CC1 | 5.8 | -0.3
O=C(COC(=O)c1ccc(Cl)nc1)NC1CCCCC1 | 0.63 | -0.2
O=C(CSCc1nc(-c2ccccc2)cs1)NNC(=O)OCc1c(F)cccc1Cl | -0.22 | .
Cc1cc(C)c2c(=O)c3ccccc3[nH]c2n1 | 39 | 0.25
O=C(c1ccccc1)N1CCN(CC(O)Cn2c3ccc(Cl)cc3c3cc(Cl)ccc32)CC1 (stereo not given) | 1.1 | .

A stretch taken from the entries so far, as a working copy:
canonical_smiles | CapD inh | AID504770
CCOc1cc(C2C3=C(CC(C)(C)CC3=O)OC3=C2C(=O)CC(C)(C)C3)c(Br)cc1O | -0.68 | .
COc1ccc(S(=O)(=O)N(C)CC(N)=O)cc1 | 0.83 | 0.4
COc1cccc(Cc2nnc(-c3ccc4c(c3)OCO4)o2)c1 | 0.75 | -0.8
O=C(NCC1CC1)c1ccc(Cn2cc(C(F)(F)F)ccc2=O)cc1 | -0.49 | .

Remaining list, next part:
canonical_smiles | CapD inh | AID504770
CC1CCCCN1S(=O)(=O)c1ccc(NC(=O)C2COc3ccccc3O2)cc1 (stereo not given) | . | 1.9
CCCC(NC1CCS(=O)(=O)C1)C(=O)O (stereo not given) | -0.09 | -0.2
C/C(=N\OCC(=O)O)c1cccs1 | -0.065 | .
Cc1cccn2c(=O)c3cc(C(=O)NC(C)c4ccccc4)sc3nc12 (stereo not given) | 0.14 | -0.9
O=S(=O)(/C=C/c1ccccc1)n1cnc2ccccc21 | i | -0.85
Cc1ccc(C(=O)N2CC(C)CC(C)C2)cc1 (stereo not given) | 0.24 | -0.85
O=C1N(CCCCN2C(=O)C3(OCCO3)c3ccccc32)c2ccccc2C12OCCO2 | 0.54 | .
O=C(O)CCN1C(=O)C2C3c4ccccc4C(c4ccccc43)C2C1=O (stereo not given) | -0.38 | 2.1

canonical_smiles | CapD inh | AID504770
O=C(c1ccc(Cl)cc1Cl)N1CCCC1 | 0.28 | -0.45
COc1cc(NC(=O)c2ccc3c(SCC(=O)O)c4c(nc3c2)CCC4)cc(OC)c1OC | -0.49 | -0.45
COc1ccc(N2CCN(C(=O)c3cn(C)c(=O)c4c3c3ccccc3n4C)CC2)cc1 | 9.5 | 0.35
COc1cccc(C(=O)N2N=C(C(F)(F)F)CC2(O)c2cccnc2)c1 (stereo not given) | -0.59 | .
Cc1ccc(-n2c(SCC(=O)Nc3c(C)cccc3C)nc3ccccc3c2=O)cc1 | 1.4 | 1.1
N#Cc1cccc(/C=N/NC(=O)c2ccc(C(F)(F)F)cc2)c1 | 0.97 | .
CCOC(=O)CN1N=NC2C(=O)N(c3ccccc3)C(=O)C21 (stereo not given) | . | 0.05
O=C(O)CSc1nc2ccccc2[nH]1 | 0.17&2.9 | .

canonical_smiles | CapD inh | AID504770
CCOC(=O)c1sc2nc(SCC#N)n(Cc3ccc(OC)cc3)c(=O)c2c1C | 2 | .
COc1cccc(-n2c(=S)sc3c(=O)n(-c4ccccc4OC)c(=S)[nH]c32)c1 | -1.5 | .
CSC1=NC(=Nc2cccc(C)c2)C2(CCCCC2)N1c1cccc(C(F)(F)F)c1 | -0.12 | .
Cc1ccc(C(=O)CSc2nnc(CSc3nc(C)cc(C)n3)n2C)cc1 | . | -0.8
O=C(CN1CCOCC1)OCCCc1ccccc1 | -0.67 | -1.2
COc1ccc(N2CC(O)(c3ccccc3)[N+]3=C2CCCC3)cc1 (stereo not given) | 0.87 | .
O=C(c1ccc(CS(=O)c2ccccc2)o1)N1CCN(c2ccccc2)CC1 (stereo not given) | -0.065 | -0.25
COc1ccc(OCc2nc3ccccc3n2C(C)C)cc1 | . | -0.6

canonical_smiles | CapD inh | AID504770
CS(=O)(=O)NCc1ccc(C(=O)NCc2ccccc2)cc1 | -0.18 | -0.45
COC(=O)CN1CCN(C(=O)c2ccc(F)cc2)c2ccccc2C1 | . | -0.7
COc1ccccc1CC(=O)N1CCCC1 | -0.04 | -0.8
Cn1ccnc1C(O)c1ccco1 (stereo not given) | 0.35 | -0.15
COc1ccc(Sc2ncc(-c3ccc(Cl)cc3)cc2C#N)cc1 | 0.14 | .
FC(F)(F)c1ccc(Sc2cccs2)nc1 | -0.08 | -0.6
CCCCNC(=S)N(CCC#N)C1CCCCC1 | -0.12 | .
CC(C)Sc1nnc(-c2cnn(-c3ccccc3)c2-n2cccc2)n1C | 0.24 | .

canonical_smiles | CapD inh | AID504770
Nc1nc(-c2ccccc2)c(CC(=O)O)s1 | -1.1 | 2
O=C(Nc1ccc(Cl)c(Cl)c1)c1cnn2c1NC(c1ccc(Br)cc1)CC2C(F)(F)F (stereo not given) | 0.4 | .
CCOC(=O)c1c(O)c2scc(C)c2[nH]c1=O | 0.03 | -0.3
O=S(=O)(Nc1ccccc1N1CCOCC1)c1ccc(Cl)s1 | . | -0.2
O=C(CNC(=O)c1ccccc1)ON1C(=O)CCC1=O | . | 0.15
c1ccc(CSC2=NCCCN2)cc1 | 8.3 | .
CC(/C=C/c1ccc2c(c1)OCO2)=N\NC(=O)c1ccccn1 | -0.23 | 0.35
S=C(NNc1nc(N2CCCCC2)nc(N2CCCCC2)n1)NC1CCCCC1 | . | -0.4

canonical_smiles | CapD inh | AID504770
COC(=O)c1cc(S(=O)(=O)CC(c2ccccc2)N2CCCC2)c(Cl)cc1N1CCCC1 (stereo not given) | -0.035 | -0.85
O=C(Nc1ccccc1)C(O)C(O)C(=O)Nc1ccccc1 (stereo not given) | 0.65 | -0.4
O=[N+]([O-])c1ccc(-c2csc(-c3ccncc3)n2)cc1 | -1.1 | .
COc1ccc(CCNC(=O)CSc2nc(C)cc(C)n2)cc1OC | -0.74 | -0.9
COc1ccccc1NC(=O)C(NC(=O)c1ccccc1NC(=O)c1ccccc1)C(C)C (stereo not given) | -0.11 | -0.3
Cc1csc2ncnc(Sc3ccccc3N)c12 | -0.56 | .
CC(=O)C1=NN(c2ccccc2)C2(S1)c1ccccc1C(c1ccccc1)=NN2c1ccccc1 (stereo not given) | 0.23 | .
O=S(=O)(/N=C(\Oc1ccccc1)c1ccccc1)c1ccc(Br)cc1 | -0.82 | 1.8
CC(C)(C)C(=O)[C@H]1[C@H](c2ccc(Cl)cc2)C(C#N)(C#N)[C@@H]2c3ccccc3C=CN21 | 5.8 | .
CC1(C)Cc2ccccc2C(c2sc3nc(-c4cccs4)cc(C(F)(F)F)c3c2N)=N1 | -0.67 | -0.65

Full records, quoted from the list.
`Cc1csc2ncnc(Sc3ccccc3N)c12` in the list: CapD inh: -0.56; AID504770: .
`COC(=O)c1cc(S(=O)(=O)CC(c2ccccc2)N2CCCC2)c(Cl)cc1N1CCCC1` (stereo not given) in the list: CapD inh: -0.035; AID504770: -0.85

Compound activity as filed in PubChem BioAssay.
